PABP FP inh: blocks human PABP binding to poly(A) RNA. inhibition, % at 35 µM. fluorescence polarization. actives 1% (n = 290,000);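 active means 50% or more with normal probe brightness, or confirmed in later tests; inconclusive means above 50% with abnormal brightness, or retests that disagree; inactive means below 50% or failed in later tests; about a fifth of its hits are not listed in these tables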;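 further: calls also rest on retests at 20 µM and on dose response follow-up; controls were probe without protein and protein plus probe with vehicle; some compounds called inactive have numbers as strong as hits; many hits fall short of the cut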
Target sequence (P11940 whole entry, looked up): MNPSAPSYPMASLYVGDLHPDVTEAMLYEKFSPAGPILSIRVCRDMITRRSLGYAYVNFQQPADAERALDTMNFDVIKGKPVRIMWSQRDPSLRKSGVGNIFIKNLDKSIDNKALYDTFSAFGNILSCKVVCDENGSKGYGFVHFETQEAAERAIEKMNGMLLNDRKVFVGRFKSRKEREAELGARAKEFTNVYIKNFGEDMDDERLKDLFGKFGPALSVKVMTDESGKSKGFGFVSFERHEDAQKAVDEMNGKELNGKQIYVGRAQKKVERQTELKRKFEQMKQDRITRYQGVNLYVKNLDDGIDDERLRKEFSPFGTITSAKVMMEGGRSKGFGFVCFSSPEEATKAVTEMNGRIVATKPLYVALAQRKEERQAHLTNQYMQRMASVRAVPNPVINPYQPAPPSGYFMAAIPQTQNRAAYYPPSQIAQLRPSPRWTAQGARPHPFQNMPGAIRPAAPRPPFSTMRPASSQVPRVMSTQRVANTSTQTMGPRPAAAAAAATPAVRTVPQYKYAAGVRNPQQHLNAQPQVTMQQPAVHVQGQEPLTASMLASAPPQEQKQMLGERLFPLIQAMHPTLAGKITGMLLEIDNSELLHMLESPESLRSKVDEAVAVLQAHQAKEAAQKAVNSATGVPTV
UUG fidelity: modulators of start codon recognition fidelity in yeast. S. cerevisiae UUG-firefly luciferase reporter, luminescence/redox ratio. activity score, % at 18.7 µM. actives 0.13% (n = 350,000);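 active means replicate mean at a twofold rise or more, about +100% in these data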;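 further: firefly luciferase made from a UUG start codon reports start codon fidelity; reporter light over untreated wells divided by growth signal over untreated wells; some hits fall short of that in this replicate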
Rce1 inhib: inhibitors of yeast Ras-converting enzyme; Q03530; yeast membranes, quenched prenylated peptide cleavage fluorescence; calls only; actives 0.27% (n = 290,000); AID 2563;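 active means fall in fluorescence gain of 50% or more versus controls, with final raw signal at or below 3038400; inconclusive means same 50% fall but final raw signal above 3038400; inactive means fall in fluorescence gain under 50%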;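 further: plate controls were neutral control wells for no effect and wells lacking membranes for full effect; tested at 10 µM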
Target sequence (Q03530 whole entry, looked up): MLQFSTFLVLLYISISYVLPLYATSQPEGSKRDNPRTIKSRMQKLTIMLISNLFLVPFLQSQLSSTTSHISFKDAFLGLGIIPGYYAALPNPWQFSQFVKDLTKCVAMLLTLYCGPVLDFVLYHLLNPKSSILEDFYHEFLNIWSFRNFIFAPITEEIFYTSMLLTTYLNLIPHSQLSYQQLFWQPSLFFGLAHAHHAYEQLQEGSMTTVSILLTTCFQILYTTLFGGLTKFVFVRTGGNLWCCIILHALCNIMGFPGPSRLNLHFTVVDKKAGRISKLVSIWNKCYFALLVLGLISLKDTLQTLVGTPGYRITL
MT1-MMP act inh: MT1-MMP (human) activation inhibition; P50281; AID 651647; actives 0.061% (n = 360,000); HT1080 RFP-PRO-GFP cells, GFP/RFP ratio fluorescence, overnight; percent of plate control window, DMSO zero; GFP/RFP ratio change, % at 20 µM;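 active means GFP/RFP ratio change of at least 30% with cell ATP level not reduced by more than half and red fluorescence within 50% of control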; further: strong numbers were not always called active
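Assay system: HT1080 cells carrying an RFP-PRO-GFP reporter | Dosing: Single dose of 20 µM compound, 1% DMSO final | Incubation: Cells overnight before dosing, compound overnight, 37 °C, 5% CO2 | Evaluation: GFP/RFP fluorescence ratio | Control set: DMSO and RFP-L50D-GFP cell wells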
CSC inhib: blocks cancer stem cells. cancer stem cell-like cells viability, luminescence. inhibition, % at 7.5 µM. actives 1.1% (n = 300,000). AID 2717;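 active means mean at 75% or more and at least half the replicates too; inconclusive means mean and replicates disagree; tested in HMLE shEcad cells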;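 further: 0% = median of negative and 100% = median of positive control wells; the first replicate is given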
eIF4H inh: inhibitors of RNA binding by human eIF4H; eIF4H fluorescence polarization binding assay; inhibition, % at 35 µM; actives 0.94% (n = 290,000);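 active means 50% or more with normal probe brightness, or confirmed in later tests; inconclusive means above 50% with abnormal brightness, or retests that disagree; inactive means below 50% or failed in later tests; about a fifth of its hits are not listed in these tables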;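 further: calls also rest on retests at 20 µM and on dose response follow-up; 0% = protein and probe with vehicle and 100% = probe without protein; strong numbers were not always called active; many hits fall short of the cut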
Env fusion inh: HIV envelope-mediated fusion inhibition | HeLa-JRFL Env/CEM21 cell fusion, luciferase | inhibition, % at 12.3 µM | actives 1.1% (n = 360,000);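 active means mean replicate inhibition score of at least 50 and every replicate individually at or above 50; inconclusive means only one of the two criteria met; inactive means mean below 50 and not all replicates reaching 50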;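 further: 0% = plate neutral controls and 100% = maraviroc near 300 nM; one replicate is shown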
MT1-MMP act inh RFP: second read-out of MT1-MMP act inh, no call of its own (marks repeat the call); RFP signal change, %; measured here: RFP expression control read;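 0 = vehicle wells; hits needed this value within 50% of zero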
* hit, by the source's call; i = inactive; ? = inconclusive; . = no result given; & = joins results of further samples. This is a random part of the collection; 2.9% or so of the library scored in one or more.

SMILES	PABP FP inh	UUG fidelity	Rce1 inhib	MT1-MMP act inh	MT1-MMP act inh RFP	CSC inhib	eIF4H inh	Env fusion inh
COC1=CC(=Cc2c(N)n3nc(CC(=O)N4CCOCC4)sc3nc2=O)C=C(OC)C1=O	?	-17	i	1	49	-18	?	-4
CCSc1nnc(CNC(=O)C23CC4CC(CC(C4)C2)C3)n1C1CCCCC1	-7	-14	i	-1	-1	2	2	6
OCCN1CCN(c2ncnc3c2c(-c2ccccc2)cn3-c2ccc(F)cc2)CC1	2	-12	i	-10	-7	.	-10	17
CC1(C(=O)Nc2cccc(C(F)(F)F)c2)CO1 (stereo unspecified)	-8	.	i	.	.	-8	2	.
CSCCC(NC(=O)c1ccco1)C(=O)Nc1ccncc1 (stereo unspecified)	-9	-8	i	-6	-1	5	-4	38
Cc1cccc(Oc2nc(-c3ccncc3)nc3ccccc23)c1	-2	.	i	-6	-4	51	-5	10
C[C@@H]1CN([C@H](C)CO)C(=O)c2cc(Br)cnc2O[C@@H]1CN(C)C(=O)c1ccccc1	.	-3&-1&9	.	-1	1	.	.	16
Cc1ccc(-c2ccc(CN3C(C)C(=O)N(Cc4cn(CCC5OCCCO5)nn4)CCS3(=O)=O)cc2)cc1 (stereo unspecified)	.	-13	.	9	-5	.	.	9
Cc1ccc(S(=O)(=O)N2CCOCC2)cc1C(=O)OCC(=O)Nc1ccc2[nH]c(=O)[nH]c2c1	.	-9	i	-5	2	2	.	-25
CC(=O)Nc1ccc(NC(=O)C2Cc3c(-c4ccc(Cl)cc4)ccnc3O2)cc1 (stereo unspecified)	.	-9	.	0	-1	.	.	15
S=c1[nH]nc(-c2ccc(Cl)cc2Cl)n1-c1ccccc1	-3	-20	i	7	-1	-4	5	-49
COc1ccccc1N1CCN(/N=C/C=C\c2ccco2)CC1	-6	-21	i	2	0	-6	8	.
CCOCCCNS(=O)(=O)c1ccccc1	1	-7	i	5	6	-11	-6	-56
CCOC(=O)Nc1ccc2c(c1)N(C(=O)CCN1CCN(C)CC1)c1ccccc1S2	11	-3	i	0	3	-5	2	.
CC(Nc1nc2ccccc2n2cnnc12)c1ccccc1 (stereo unspecified)	5	-9	i	1	-5	-2	-10	-49
O=C(CN1C(=O)C2C3C=CC(C3)C2C1=O)NCCc1ccccc1Cl (stereo unspecified)	-20	-15	i	2	9	-3	-10	-13
CCOC(=O)c1cnc(SCc2ccccc2)nc1N	1	-1	i	10	3	9	-9	-77
CC(/C=N/NC(=O)c1cc(C2CC2)[nH]n1)=C\c1ccccc1	-4	.	i	3	-9	36	-14	-31
Cc1cc(C)c2c(n1)sc1c(N3CCCCC3)ncnc12	-6	-1	i	1	-3	15	3	-5
Nc1c(N(CCCO)C(=O)CCCN2C(=O)c3cccc4cccc(c34)C2=O)c(=O)[nH]c(=O)n1Cc1ccccc1	.	-8	.	-3	3	.	.	-1
O=C(NCc1cccnc1)C(=O)C1C(=O)Nc2ccccc21 (stereo unspecified)	5	-9	i	-4	5	-16	-7	9
O=S(=O)(c1cccc(C(F)(F)F)c1)N1CCN(C(=S)NCc2ccco2)CC1	-17	-8	i	-3	0	16	0	-10
CCOc1ccccc1OCC(=O)OC(C)C(=O)Nc1ncc(Cl)cc1Cl (stereo unspecified)	.	-11	.	2	-2	.	.	-5
Cc1cc(C)cc(N2C(=O)CC(n3nc(C)cc3C)C2=O)c1 (stereo unspecified)	-4	-29	i	2	6	-3	-5	6
CCSc1sc(CC)cc1C=O	10	.	i	0	5	-15	-1	3
CCOC(=O)c1oc2ccccc2c1CN1CCN(c2ccccc2)CC1	22	-14	i	-7	-4	19	-5	.
CCOc1ccc(NC(=S)NC23CN4CN(CN(C4)C2)C3)cc1	-4	.	i	-2	3	-8	-1	7
COc1ccc(NS(=O)(=O)c2ccc(NC(=O)c3ccc(N(C)S(C)(=O)=O)cc3)cc2)c(OC)c1	4	-17	i	-4	-29	-3	1	52
COc1ccc(CCNC(=O)C(=O)NCC2OCCN2S(=O)(=O)c2cccs2)cc1OC (stereo unspecified)	-1	12	i	0	-5	-8	-4	-2
FC(F)(F)c1ccc(N2CCN(c3cc(-c4ccccc4)nc4ncnn34)CC2)nc1	0	-15	i	14	-22	.	-2	77*

Single records, as listed above:
O=S(=O)(c1cccc(C(F)(F)F)c1)N1CCN(C(=S)NCc2ccco2)CC1 is listed with PABP FP inh: -17; UUG fidelity: -8; Rce1 inhib: i; MT1-MMP act inh: -3; MT1-MMP act inh RFP: 0; CSC inhib: 16; eIF4H inh: 0; Env fusion inh: -10
COc1ccc(CCNC(=O)C(=O)NCC2OCCN2S(=O)(=O)c2cccs2)cc1OC (stereo unspecified) is listed with PABP FP inh: -1; UUG fidelity: 12; Rce1 inhib: i; MT1-MMP act inh: 0; MT1-MMP act inh RFP: -5; CSC inhib: -8; eIF4H inh: -4; Env fusion inh: -2

Going on with the list.
SMILES	PABP FP inh	UUG fidelity	Rce1 inhib	MT1-MMP act inh	MT1-MMP act inh RFP	CSC inhib	eIF4H inh	Env fusion inh
COc1ccc(-c2cc3ncccc3cn2)cc1	.	-33	.	5	0	8	.	-114
CCc1ccc(Nc2nnc(SCC(=O)c3c(N)n(C4CC4)c(=O)[nH]c3=O)s2)cc1	.	-11	.	-1	-2	.	.	-43
O=C(COc1ccccc1[N+](=O)[O-])Nc1cc(C(=O)O)cc(C(=O)O)c1	7	.	i	-2	2	-5	4	-5
CCn1c2ccc(OC)cc2c2nc3ccccc3nc21	-14	.	i	.	.	7	7	.
O=C(NN1C(=O)/C(=C/c2cccc(O)c2)SC1=S)c1ccccc1O	14	-20	i	-2	1	6	-12	2
CCn1c(/C=C2/C(=O)N(C)c3ccccc32)nc2ccccc2c1=O	4	-15	i	-6	-5	6	4	-83
COc1ccc(CNC(=O)c2sc(=O)n(Cc3ccccc3C)c2C)cc1	.	-16	.	-4	-5	.	.	13
CS(=O)(=O)N(CC(=O)O)c1cc(Cl)cc(Cl)c1	-4	-11	i	-3	-1	-23	-6	.
Cc1nnsc1C(=O)N1CCC(CO)(Cc2ccccc2Cl)CC1	0	-8	i	-1	-3	2	-4	-17
CCCCOC(=O)c1cccc(NC(=O)CCC(=O)O)c1	8	0	i	8	-1	-12	0	-19
COC(=O)n1c(=O)oc2ccccc21	-21	-10	.	0	5	-8	-6	.
c1ccc(CCc2nn3c(Cn4nnc5ccccc54)nnc3s2)cc1	16	-15	i	-2	-1	4	-4	-19
C=C(Br)Cn1c(CC(C)C)nc2ccccc21	4	10	i	-5	-1	.	-19	-19
N#Cc1nc(-c2ccc(F)cc2)oc1N1CCCC1	0	-17	i	2	1	9	-8	.
CCCC(=O)NC(=S)Nc1cccc(NC(=O)c2ccc(Cl)cc2Cl)c1	12	-9	i	4	3	5	3	.
COC(=O)c1ccccc1NC(=O)Cn1nnc(-c2ccc(OC)cc2)n1	-1	-15	i	5	5	43	-8	.
O=C(COC(=O)COc1ccccc1Cl)Nc1ccccc1OC(F)F	-5	-10	i	-4	-1	-13	-6	6
CC(=O)c1ccc(NC(=O)/C(Cl)=C/c2ccccc2)cc1	24	.	i	-1	1	-3	-14	-41
CCN(CC)CC(=O)c1c(N)n(Cc2ccccc2)c(=O)n(C)c1=O	-1	.	i	-2	0	-7	1	-5
Cc1ccc(F)cc1CNC(=O)C1CCC(=O)N(CCCN2CCCC2=O)C1 (stereo unspecified)	11	-22	.	3	4	-8	-2	5
CC1=C(C(=O)OCC2CCCO2)C(c2ccc(Cl)c(Cl)c2)NC(=O)N1 (stereo unspecified)	38	12	i	3	-5	4	30	8
O=S(=O)(c1ccc(-c2nc3ccccc3s2)cc1)N1CCCC1	1	.	i	6	0	-13	-11	-60
Cc1ccc(C(=O)NCCNc2ncc(C(F)(F)F)cc2Cl)cc1[N+](=O)[O-]	11	-5	i	5	2	6	-8	30
Cc1cc(C)c2c(N)c(-c3nc4ccccc4[nH]3)sc2n1	-2	.	i	2	-1	-5	-4	.
CCCC1=Nc2cc(C(=O)N3CCN(c4ccccn4)CC3)ccc2Sc2ccc(C)cc21	-14	-18	i	-2	-4	-9	-13	-26
CN1/C(=C\C(=O)COC(=O)Cn2nnc(-c3ccccc3)n2)C(C)(C)c2ccccc21	7	-13	i	39*	26*	-12	6	36
CC(C)c1ccc(Nc2nc(CC(=O)O)cs2)cc1	-6	.	i	-5	-1	3	-1	-343
NC1=NC(=Nc2ccc(Cl)cc2)c2ccccc21	46	-16	i	3	9	28	2	10
O=C(NCC1CCCO1)C12CN(Cc3ccccc3)CC1C(c1cccc([N+](=O)[O-])c1)=NO2 (stereo unspecified)	4	9	i	1	-1	-11	7	6
Cc1cccc(N2O[C@H]3C=CC2CCCC3)n1	.	-9	.	4	5	.	.	-95
COc1cccc(C(C(=O)NC2CCCCC2)N(C(=O)c2ccccn2)c2cccnc2)c1 (stereo unspecified)	2	.	i	0	0	-17	2	10
CCOc1ccc2c(c1)c1nnc(SCC(=O)N3CCCCC3C)nc1n2C (stereo unspecified)	0	-11	i	7	-4	-3	-9	-6

Molecules listed so far containing a Cl atom (12):
SMILES	PABP FP inh	UUG fidelity	Rce1 inhib	MT1-MMP act inh	MT1-MMP act inh RFP	CSC inhib	eIF4H inh	Env fusion inh
CC(=O)Nc1ccc(NC(=O)C2Cc3c(-c4ccc(Cl)cc4)ccnc3O2)cc1 (stereo unspecified)	.	-9	.	0	-1	.	.	15
S=c1[nH]nc(-c2ccc(Cl)cc2Cl)n1-c1ccccc1	-3	-20	i	7	-1	-4	5	-49
O=C(CN1C(=O)C2C3C=CC(C3)C2C1=O)NCCc1ccccc1Cl (stereo unspecified)	-20	-15	i	2	9	-3	-10	-13
CCOc1ccccc1OCC(=O)OC(C)C(=O)Nc1ncc(Cl)cc1Cl (stereo unspecified)	.	-11	.	2	-2	.	.	-5
CS(=O)(=O)N(CC(=O)O)c1cc(Cl)cc(Cl)c1	-4	-11	i	-3	-1	-23	-6	.
Cc1nnsc1C(=O)N1CCC(CO)(Cc2ccccc2Cl)CC1	0	-8	i	-1	-3	2	-4	-17
CCCC(=O)NC(=S)Nc1cccc(NC(=O)c2ccc(Cl)cc2Cl)c1	12	-9	i	4	3	5	3	.
O=C(COC(=O)COc1ccccc1Cl)Nc1ccccc1OC(F)F	-5	-10	i	-4	-1	-13	-6	6
CC(=O)c1ccc(NC(=O)/C(Cl)=C/c2ccccc2)cc1	24	.	i	-1	1	-3	-14	-41
CC1=C(C(=O)OCC2CCCO2)C(c2ccc(Cl)c(Cl)c2)NC(=O)N1 (stereo unspecified)	38	12	i	3	-5	4	30	8
Cc1ccc(C(=O)NCCNc2ncc(C(F)(F)F)cc2Cl)cc1[N+](=O)[O-]	11	-5	i	5	2	6	-8	30
NC1=NC(=Nc2ccc(Cl)cc2)c2ccccc21	46	-16	i	3	9	28	2	10

Screening data (PubChem)
